# Screens as filed in PubChem BioAssay.
# Vaccinia Venus – qHTS for Stage-Specific Inhibitors of Vaccinia Orthopoxvirus: Venus Reporter Primary qHTS; 330,000 tested, 0.46% active; Vaccinia virus Venus reporter expression, fluorescence; Potency, µM (highest dose often 36.5 µM), without a hit: at the top dose activity change, negative = inhibition, usual class: inhibitors; active means well fitted inhibition curve with a large enough effect; inconclusive means small, poorly fitted or top-dose-only effect; inactive means no such curve, though single readings can be large or run the other way; tested in A549 cells; note: nearly all actives have a fitted effect of over 30% in size; inactives centre near -10
# Vaccinia mCherry – qHTS for Stage-Specific Inhibitors of Vaccinia Orthopoxvirus: mCherry Reporter Primary qHTS; 310,000 tested, 0.63% active; Potency, µM (series often up to 36.5 µM), for inactives: top-dose activity change, negative = inhibition, usual class: inhibitors; Vaccinia virus mCherry reporter infection, fluorescence; about a quarter of the inactives have no number; active = well fitted inhibition curve with a large enough effect; inconclusive = small, poorly fitted or top-dose-only effect; inactive = no such curve, though single readings can be large or run the other way; tested in A549 cells; note: nearly all actives have a fitted effect of over 35% in size; inactives centre near -10
# An asterisk follows results filed as active; i = inactive; ? = inconclusive; / = not tested or not shown; & = joins results of further samples; [ ] = dose if it differs, or a comment. % is set by controls: 0 for no effect and ±100 for the full control effect; potency is the fitted concentration of half-maximal effect. Rows were taken by chance; about 0.82% have a hit in one of these screens.
# Every second line gives: Vaccinia Venus | Vaccinia mCherry
CCN(CC)CCCN(C(=O)c1ccccc1F)c1nc(-c2ccc(OC)cc2)cs1
 : -30% | ?
Cn1nnnc1SCCNCc1cc(Br)ccc1OCc1ccccc1Cl
 : -28% | -24%
O=C(NCc1ccccc1)C(c1ccco1)N1CCN(C(=O)C2CCCO2)CC1 (centres undefined)
 : -5% | -15%
COC(=O)c1ccc(CSc2nnc(Nc3ccc(OC)cc3)s2)o1
 : -8% | -23%
Cc1nnc2sc(SCC(=O)N3CCC(C)CC3)nn2c1=O
 : 5% | i
O=C(CN(Cc1ccco1)C(=O)Cn1nnc(-c2cccs2)n1)NCc1ccccc1
 : 7% | -13%
CCOc1ncccc1C(=O)Nc1ccc(F)c(Cl)c1
 : -11% | i
CC(C)C(NCC(=O)Nc1ccccc1C(=O)NC1CC1)c1ccccc1 (centres undefined)
 : -6% | -12%
O=C(Cc1ccccc1)NCc1n[nH]c(=S)n1-c1ccccc1
 : -4% | 14%
CC(C(=O)Nc1ccc(F)cc1Cl)N(C)CCOc1ccccc1 (centres undefined)
 : 3% | -9%
Cc1csc(NC(=O)CSc2nc3[nH]c(=O)cc(O)c3s2)n1
 : -21% | -3%
O=C(C=P(c1ccccc1)(c1ccccc1)c1ccccc1)c1ccccc1-c1ccccc1C(=O)C=P(c1ccccc1)(c1ccccc1)c1ccccc1
 : 3.5µM* | ?
CC(C)CCC(C(=O)O)C(C)CC(=O)NC1CCCCC1 (centres undefined)
 : -11% | i
NC(=O)c1cc2cc(Cc3ccccc3Cl)ccc2oc1=O
 : -15% | -8%
Cc1ccsc1C(=O)C1CCCN(Cc2ccc(O)cc2)C1 (centres undefined)
 : -3% | -7%
Cc1cc(C)n(CCn2nc(C)cc2C)n1
 : 21% | /
Cc1ccc(OCC(=O)NNC(=O)c2ccccc2OCc2c(C)noc2C)cc1
 : -17% | -2%
Cc1ccc(C)c(N2CCN(C(=O)CS(=O)(=O)c3cccc4nsnc34)CC2)c1
 : -12% | -5%
COc1cccc(N2C(=O)C3C(C2=O)C3(c2ccccc2)c2ccccc2)c1 (centres undefined)
 : -6%[7.34 µM] | i[7.34 µM]
CN[C@@H](CO)C(=O)NC[C@H]1O[C@@H](n2cnc3c(=O)[nH]c(N)nc32)[C@H](O)[C@@H]1O
 : -3% | i
N#Cc1sc2nc(C3CC3)cc(-c3ccc(Cl)cc3)c2c1N
 : 14µM* | 4.5µM*
O=C(NNC1CC(c2ccccc2)=NN1C(=O)c1ccccc1)c1ccccc1 (centres undefined)
 : -7% | -2%
COc1ccccc1NC(=O)Cn1nnc(C(=O)Nc2ccccc2Br)c1N
 : -19% | -10%
COc1ccc(CCNC(=O)Cn2nc(C)n3c(cc4occc43)c2=O)cc1OC
 : -8% | -8%
Cc1ccc2c(c1)c1c(c(=O)n(-c3cccc(Cl)c3)c(=O)n1CC(=O)Nc1c(C)cccc1C)n2C
 : 2% | -3%
Cc1cc(N)n2nc(-c3ccc(C(C)(C)C)cc3)cc2n1
 : ? | ?
CC(=O)c1c(C)c2c(n1CCN(C)C)CCCC2
 : -9% | /
COC(=O)C1=C(c2ccc(-c3ccccc3)c(F)c2)C[C@@H]2CC[C@H]1N2C(=O)N1CCC(C)CC1
 : ? | -16%
Cc1ccc(C(=O)COC(=O)CNS(=O)(=O)c2ccccc2)cc1[N+](=O)[O-]
 : -20% | /
CCN(CC)CCn1c(=N)n(CC(O)COc2ccccc2)c2ccccc21 (centres undefined)
 : -28% | -10%
CSCC[C@H](NC(=O)c1cccc(S(=O)(=O)N2CCCCCC2)c1)c1nc2ccccc2[nH]1
 : 7% | -3%
COc1ccc(CN2CCC3(CC2)c2ccccc2[C@@H](NC(=O)c2ccccc2OC)[C@@H]3O)cc1O
 : -12% | -23%
CC(C)N1CC(C(=O)O)CC1=O (centres undefined)
 : -11% | i
Cc1cc(Br)cn2c(Cc3ccccc3)c(C3CCCCC3)nc12
 : -5% | -8%
COc1ccccc1NC(=O)Oc1ccc(C(C)=O)cc1
 : 0% | -13%
CCCC[C@@H]1CNCCN1CCCc1cc(OC)c(OC)c(OC)c1
 : 3% | i
CC1CN(c2ccccc2)CCN1Cc1nc(Cc2ccccc2)no1 (centres undefined)
 : -9% | -13%
Cc1csc2nc(CNS(=O)(=O)c3ccc4c(c3)CCCC4)cn12
 : -19% | -28%
CCOC(=O)CNC(=O)C1Cc2ccccc2CN1S(=O)(=O)c1cccs1 (centres undefined)
 : -1% | 3%
O=C(O)CCN1C(=O)c2ccc(NC(=O)Cc3ccc(Cl)cc3)cc2C1=O
 : -2% | i

# Of the compounds above, these have a thiophene ring, fused or not:
# Every second line gives: Vaccinia Venus | Vaccinia mCherry
O=C(CN(Cc1ccco1)C(=O)Cn1nnc(-c2cccs2)n1)NCc1ccccc1
 : 7% | -13%
Cc1ccsc1C(=O)C1CCCN(Cc2ccc(O)cc2)C1 (centres undefined)
 : -3% | -7%
N#Cc1sc2nc(C3CC3)cc(-c3ccc(Cl)cc3)c2c1N
 : 14µM* | 4.5µM*
CCOC(=O)CNC(=O)C1Cc2ccccc2CN1S(=O)(=O)c1cccs1 (centres undefined)
 : -1% | 3%

# (next part)
# Every second line gives: Vaccinia Venus | Vaccinia mCherry
CC(CN(C)Cc1nc(Cc2cccc(C(F)(F)F)c2)no1)CN1CCCC1 (centres undefined)
 : -10% | -22%
COc1ccccc1NC(=O)Cc1nnc(SCC(=O)NC2CCCCC2C)n1C (centres undefined)
 : -7% | -5%
CCN1CCN(c2ccc(/C=C/c3ccnc4ccccc34)cc2)CC1
 : -22% | 8%
CCN1CCc2c(sc(NC(=O)C3CCCCC3)c2C(=O)OC)C1
 : -4% | 15%
Cc1c(NC(=O)c2nc3ccccc3n(C)c2=O)cccc1[N+](=O)[O-]
 : 3% | -1%
COc1ccc2cc(CN(C(=O)Nc3ccccc3OC)C3CCCC3)c(=O)[nH]c2c1
 : -13% | -27%
CCCCn1nnc(NC(=O)Cc2ccc(Cl)cc2)n1
 : -23% | /
COC(=O)c1c(-c2cccs2)csc1NC(=O)c1cccc(Cl)c1
 : -4% | -9%
Cn1c(CCNC(=O)c2ccccc2F)nnc1SCc1nc2ccccc2c(=O)[nH]1
 : -9% | -14%
CCCOC(=O)c1ccc(NC(=O)Cn2nnc3sc4c(c3c2=O)CCC(C(C)(C)C)C4)cc1 (centres undefined)
 : -9% | -2%
O=C1NCCCN1Cc1ccc(Cl)cc1
 : -9% | -5%
COc1ccccc1CC(=O)Nc1cccc(C)n1
 : -7% | -13%
CC1CC(C)CN(CCCNC(=O)CCNC(=O)Cn2cnc3ccccc3c2=O)C1 (centres undefined)
 : -2% | -21%
CCn1c(N2CCN(S(=O)(=O)c3ccc(OC)cc3)CC2)nc2ccccc21
 : -26% | i
CC(C)C(=O)Nc1ccc(NC(=O)CCc2ccccc2)cn1
 : 8% | 4%
CCc1cccc2c(-c3ccc(F)cc3)nc(SCC(=O)Nc3ccccc3)nc12
 : -5% | -8%
CCCCOc1ccc(S(N)(=O)=O)cc1
 : ? | -19%
CCOC(=O)c1cc(-c2csc(COc3ccccc3Cl)n2)on1
 : -11% | -14%
O=C(c1ccco1)N1CCN(Cc2cc(=O)c(OCc3cccc(F)c3)co2)CC1
 : 8% | 0%
O=C(NCC1CCCO1)c1ccc(Br)o1 (centres undefined)
 : -10% | -13%
CC1=CC(C)(C)Nc2ccc(OC(=O)CN3C(=O)CCC3=O)cc21
 : 73%[activator] | i
Cc1ccc(NC(=O)c2cc(-c3ccc(C)c(C)c3O)n[nH]2)cc1C
 : -17% | -13%
N#CCC(=O)N/N=C\c1cccc(OC/C=C/c2ccccc2)c1
 : -3% | -8%
Cc1ccc(C(=O)NCCC(=O)Nc2ccccc2C)cc1
 : 0% | -15%
CC1CNCCN1c1ccc(Cl)cc1 (centres undefined)
 : -7% | -19%
CC(C)NC(=O)COC(=O)/C=C/c1ccc(F)cc1
 : -5% | -16%
Cc1ccc([N+](=O)[O-])cc1/C=N/Nc1nnnn1-c1ccccc1
 : -8% | -15%
CCCCN1C(=O)C(CC(=O)NCCN2CCOCC2)CC(C(=O)N(C)C)=C1C (centres undefined)
 : -17% | -11%
CCOc1ccc(NC(=O)Nc2cccn(Cc3ccccc3)c2=O)cc1
 : ? | ?
COCc1nnc(NC(C)=O)s1
 : -1% | -16%
C[C@H](NC(=O)c1nc[nH]c1C(=O)NC1CCNCC1)C(=O)OC(C)(C)C
 : -7% | i
Cc1ccc(-n2c(=O)c3sccc3n(Cc3cc(=O)n4ccccc4n3)c2=O)cc1
 : -4%&-15% | -18%&-24%
O=C(O)c1ccc(/C=N/NC(=O)c2ccc(Br)cc2)cc1
 : -15% | -13%
O=C(Nc1ccccc1F)c1ccncc1
 : -4% | i
Cc1sc2nc(SCC(=O)NCCO)n(-c3ccccc3)c(=O)c2c1C
 : -9% | i
COc1ccc(CCC(=O)N2CCc3c([nH]c4ccccc34)C2c2ccc(F)cc2)cc1 (centres undefined)
 : 10% | 2%
Cn1nnnc1SCC(=O)Nc1ccccc1Br
 : 5% | -10%
CC(C)C1=NN2C(=N)CC(=O)N=C2S1
 : -13% | -16%
COc1ccccc1CCNC(=O)CNC(=O)c1ccc2ccccc2c1
 : -8%&-1% | 5%&-16%
C[C@@H]1CN([C@H](C)CO)C(=O)CCCn2nncc2CO[C@H]1CN(C)Cc1cccc2c1OCCCO2
 : -18% | i

# Seven structures from above, arranged by length of the SMILES, lowest first.
# Every second line gives: Vaccinia Venus | Vaccinia mCherry
Cn1nnnc1SCC(=O)Nc1ccccc1Br
 : 5% | -10%
CC(C)NC(=O)COC(=O)/C=C/c1ccc(F)cc1
 : -5% | -16%
COc1ccccc1CCNC(=O)CNC(=O)c1ccc2ccccc2c1
 : -8%&-1% | 5%&-16%
CCOc1ccc(NC(=O)Nc2cccn(Cc3ccccc3)c2=O)cc1
 : ? | ?
Cc1ccc([N+](=O)[O-])cc1/C=N/Nc1nnnn1-c1ccccc1
 : -8% | -15%
CCCCN1C(=O)C(CC(=O)NCCN2CCOCC2)CC(C(=O)N(C)C)=C1C (centres undefined)
 : -17% | -11%
C[C@@H]1CN([C@H](C)CO)C(=O)CCCn2nncc2CO[C@H]1CN(C)Cc1cccc2c1OCCCO2
 : -18% | i

# Following part.
# Every second line gives: Vaccinia Venus | Vaccinia mCherry
Cc1cccc(C)c1NC(=O)CN(C)C(=O)CC1CC2CCC1C2 (centres undefined)
 : -6% | -17%
CC(O)COc1ccc(/C(=N/O)c2ccccc2)cc1 (centres undefined)
 : -10% | -7%
COc1ccc(C(=O)COC(=O)CCn2nnc(-c3cccc(O)c3OC)n2)cc1
 : -9% | i
CC1CCN(c2ccc(-c3nc(C(C)C)no3)cc2[N+](=O)[O-])CC1
 : 1% | -12%
O=C(NCCN1CCC(n2c(=O)[nH]c3ccccc32)CC1)c1ccc(F)cc1Cl
 : -11% | -11%
Cc1ccc(NC(=O)N2CCC(n3c(C)nc4cccnc43)CC2)c(Cl)c1
 : 3% | -2%
CC(C)(C)OC(=O)CNC(=O)c1[nH]cnc1C(=O)Nc1ccc(Cl)cc1
 : ? | -29%
NC(N)=NN=C1CCC(c2ccccc2)CC1 (centres undefined)
 : -6% | -27%
Cc1ccc(S(=O)(=O)NN2C(=O)c3ccccc3NC2c2ccccc2O)cc1 (centres undefined)
 : -16% | -3%
CC1(C)Cc2c(C#N)c(SCC(=O)c3ccccc3)nc(N3CCOCC3)c2CO1
 : 0% | i
CSC1=NCCN1C(=O)Cc1ccc(Cl)cc1
 : 0% | i
CCOCCCNC(=O)CN1C(=O)COc2ccc(S(=O)(=O)N3CCCCCC3)cc21
 : -5% | -5%
CN1C(=O)/C(=C/c2ccccc2OCc2cccc(F)c2)NC1=S
 : -11% | /
CC(=O)Oc1c(-c2ccc(Br)o2)oc2ccccc2c1=O
 : -20% | ?
CSc1nc(N)nc2c1ncn2CC(=O)NCC1CCCO1 (centres undefined)
 : -2% | -12%
C/C(=N/NC(=O)c1ccc2c(c1)OCO2)c1cccc([N+](=O)[O-])c1
 : -14% | -14%
Cc1c(F)cccc1NC(=O)CCCCCC1NC(=O)NC1C (centres undefined)
 : -7% | -11%
Cc1cc(C)c(S(=O)(=O)c2cccc(C)c2C)c(=O)[nH]1
 : -8% | -16%
COc1ccc(NC(=O)NC2(C)CCS(=O)(=O)C2)cc1 (centres undefined)
 : 3% | 6%
O=C(NNC(=O)c1cc2cc3ccccc3nc2s1)c1cccc(Cl)c1
 : -21% | /
Cc1ccc(C(=O)OCc2cn(-c3ccccc3)nn2)cc1
 : -9% | -13%
Nc1ccc(C(=O)NC23CC4CC(CC(C4)C2)C3)cc1
 : -10% | i
CC(=O)n1cc(C2CC(=O)OC3=C2CC(=O)C(C)(C)C3)c2ccccc21 (centres undefined)
 : ? | -24%
CCOc1ccccc1NC(=O)c1c(NC(=O)C(C)Oc2cccc(Cl)c2)sc2c1CCCCC2 (centres undefined)
 : -11% | -19%
COC(=O)c1sccc1-n1cccc1C(=O)C(=O)Nc1ccc(F)cc1
 : -4% | -11%
Cc1ccc(C(=O)NC(N(C)C)C(Cl)(Cl)Cl)cc1 (centres undefined)
 : -21% | -5%
CC(=O)C[C@H](O)CC(=O)[C@H]1OC(=O)CCCCCc2ccccc21
 : -7% | i
O=C(CSc1nc2ccc(N3CCOCC3)cc2c(=O)n1CCc1ccccc1)NCC1CCCO1 (centres undefined)
 : -11% | -3%
